# Assay outcomes as filed in PubChem BioAssay.
# ugtP null kill – kills S. aureus RN4220 lacking UgtP; S. aureus RN4220 ugtP deletion, OD600 growth, 16 h; some inactives read as strong as hits; actives 0.54% (n = 330,000); growth inhibition, % (test concentration not listed);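 active = z-score under -3 and OD600 up to 0.15 on both plates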;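 note: plate controls were untreated wells for no effect and antibiotic for full effect; wells of about 80 µL received 100 nL stock; the first replicate is given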
# BJeLR lethal – BJeLR cell viability loss. BJeLR (HRASV12) viability, CellTiter-Glo ATP luminescence, 48 h; reference of the scale not given here. inhibition, % (concentration not given with the values). actives 0.17% (n = 300,000);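 active = replicate mean above 50%; inconclusive = above 50% but judged a plate artefact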;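 note: 50 nL library stock added to about 25 µL; numbers are from one replicate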
# RN4220 kill – kills Staphylococcus aureus RN4220; S. aureus RN4220 growth, OD600, 16 h; actives 0.33% (n = 330,000); inhibition, % (no concentration beside the values);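 active = z-score of -3 or lower and OD600 up to 0.18 on both plates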;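 note: plate controls were untreated cells for no effect and reference antibiotic for full effect; stock transfer was 100 nL into about 80 µL; one replicate is shown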
# PrP 5UTR inh – suppresses PrP 5' UTR mRNA reporter expression; inhibition, % (no concentration beside the values); cell-based PrP 5' UTR mRNA reporter, plate reader; AID 488862; actives 0.35% (n = 340,000);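 active = every replicate at 50% or more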;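 note: 0 = median of the neutral control wells; tested in H4 reporter cells; numbers are from one replicate; inactives centre near -14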
# Mtb hypoxia inh – Mtb hypoxia fluorescent reporter inhibition | fluorescence inhibition, % (concentration not given with the values) | actives 0.1% (n = 300,000) | M. tuberculosis hypoxia-regulated fluorescent reporter, fluorescence;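 active = 35 to 45% if threefold the growth effect, above 45% if 1.5-fold the growth effect; inactive = the rest, general growth blockers included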;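 note: wells of about 50 µL received 100 nL stock; 0% = vehicle wells and 100% = reference inhibitor wells; whole bacteria with a GFP reporter of the hypoxia response; strong numbers were not always called active; many hits fall short of the cut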
# Autofluor counter – counter-screen for toxin protease inhibitors: compound fluorescence. compound autofluorescence counterscreen, microsphere flow cytometry; stronger effect = higher value. fluorescence intensity (no concentration beside the values). actives 3.1% (n = 360,000). AID 624483;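 active = at least 3 SD above the mean of all compounds, about 16000 in these data; inconclusive = too few beads counted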;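 note: 100 nL of 1 mM stock went into each well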
# Mtb hypoxia inh growth – recorded beside Mtb hypoxia inh, whose call it bears; growth inhibition, %; measured here: M. tuberculosis growth (absorbance);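 0% = vehicle and 100% = reference antibiotic; read after six days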
# * marks the source's active call; other numbers are inactive results; ? = inconclusive; . = no result given; & = joins results of further samples.
SMILES,ugtP null kill,BJeLR lethal,RN4220 kill,PrP 5UTR inh,Mtb hypoxia inh,Mtb hypoxia inh growth,Autofluor counter
Cc1ccsc1C(=O)NCc1ccccc1Cl,13.2,-2.7,3.9,-11.4,-2.3,-5.8,3774
Cc1ccccc1C(=O)Nc1ccc(C(=O)N/N=C/c2ccc(O)cc2)cc1,.,-6.8,.,-6.5,.,.,3414
CCOCCCNC(=S)N1CCCC(c2nc3ccc(C)cc3[nH]2)C1 (stereo not drawn),-1.9,16.7,-1.1,-12.8,6.4,3.0,3248
Cc1cc(C)n(CC(=O)NC2CCCc3c2cnn3-c2ccccc2F)n1 (stereo not drawn),-1.6,2.9,-3.3,-5.1,-3.7,-0.8,6053
CC(=O)/C(C=Nc1noc(C)c1Br)=C(\C)O,8.6,-14.1,6.8,-12.6,3.9,-1.2,6129
COc1ccc(Nc2nc(N)c([N+](=O)[O-])c(NCc3ccccc3)n2)cc1,-19.9,1.0,-2.9,5.1,2.3,-2.6,4511
COC(=O)Cn1cc(S(=O)(=O)NCc2ccc(C)cc2)c2cc([N+](=O)[O-])ccc21,17.5,-3.1,5.0,-31.6,-3.6,2.7,2975
C1CCN=C(Nc2nc3c(s2)CCCC3)CC1,-3.2,-7.7,4.3,-27.4,1.0,1.3,10162
Cc1cc(C2(c3ccc(O)c(C)c3)OC(=O)c3ccccc32)ccc1O,.,-1.6,.,-17.8,.,.,7603
Cc1noc(C)c1S(=O)(=O)Nc1cccc(CO)c1,7.1,-6.7,1.4,11.0,-1.7,-4.9,?
CCCN1C(=O)/C(=c2\sc3nc(=O)c(Cc4ccc(C)cc4)nn3c2=O)c2ccccc21,.,3.6,.,-23.0,.,.,3264
C=CCOn1c(=O)c(C)[n+]([O-])c2ccccc21,4.5,-0.7,0.7,-11.1,.,.,5425
O=C(COC(=O)c1ccncc1)Nc1cc(S(=O)(=O)N2CCOCC2)ccc1Cl,0.5,.,3.6,-1.8,-10.8,-0.9,8362
Cc1ccc(Nc2nc(-c3ccncc3)cs2)cc1,6.8,7.2,1.6,-89.7,-1.3,7.9,?
CC(C)c1ccc2c(c1)CCC1C(C)(CN)CCCC21C (stereo not drawn),6.9,107.4*,-9.7,-21.4,.,.,3721
O=C(CSc1nnc(CNC(=O)c2ccco2)o1)Nc1ccc(F)cc1,-3.6,-4.7,3.0,-13.0,9.3,2.9,5161
COc1ccc(N(C)C(=O)c2cn(C)c(=O)c3cc(OC)c(OC)cc23)cc1,16.7,1.8,-0.8,-33.4,6.8,-5.8,3916
CC(=NCCCn1ccnc1)c1c(-c2ccccc2)[nH]n(-c2nc3ccccc3s2)c1=O,0.9,-3.1,-2.8,-5.6,20.0,21.9,3361
CCCn1c(NC(=O)c2ccccc2Br)nc2ccccc21,8.3,6.9,-11.3,-28.5,16.2,10.8,4061
O=C(CCNC(=O)N1CCn2c1nc1ccccc12)NCc1ccccc1Cl,3.2,1.3,1.9,-6.1,10.2,0.6,4744

# Exported bar-delimited: entries from further up.
Compound | ugtP null kill | BJeLR lethal | RN4220 kill | PrP 5UTR inh | Mtb hypoxia inh | Mtb hypoxia inh growth | Autofluor counter
Cc1cc(C2(c3ccc(O)c(C)c3)OC(=O)c3ccccc32)ccc1O | . | -1.6 | . | -17.8 | . | . | 7603
Cc1noc(C)c1S(=O)(=O)Nc1cccc(CO)c1 | 7.1 | -6.7 | 1.4 | 11.0 | -1.7 | -4.9 | ?
CCCN1C(=O)/C(=c2\sc3nc(=O)c(Cc4ccc(C)cc4)nn3c2=O)c2ccccc21 | . | 3.6 | . | -23.0 | . | . | 3264

# The results go on.
SMILES,ugtP null kill,BJeLR lethal,RN4220 kill,PrP 5UTR inh,Mtb hypoxia inh,Mtb hypoxia inh growth,Autofluor counter
CCCCOc1ccc(N(CC(=O)NC2CCCC2)C(=O)CCC(=O)Nc2ccccn2)cc1,-3.7,-1.2,1.7,-11.1,.,.,4886
Cc1c(Cl)cccc1NC(=S)N(CCCN1CCOCC1)Cc1cccs1,4.9,19.5,2.0,-29.2,-0.2,0.6,2451
O/N=C/c1ccccc1Oc1ccc(Cl)cc1,.,2.3,.,-16.6,.,.,4288
COCCSc1nc(N)c2c3c(sc2n1)CN(C)CC3,0.9,-3.0,1.5,-23.3,-0.5,-3.6,6072
CC(=O)c1ccc(N2CCN(c3ccc(C(F)(F)F)cn3)CC2)cc1,-9.1,20.0,6.4,-26.0,-0.4,-0.8,8123
CCOC(=O)c1cnc2c(Cl)c(Cl)ccc2c1NCCN1CCOCC1,0.9,0.8,13.8,-2.9,21.6,19.9,3257
c1ccc(OCCOc2cccc3cccnc23)cc1,-1.9,1.1,4.1,-34.1,12.0,8.8,2036
CN(C)C(=O)OCC1COc2ccccc2O1 (stereo not drawn),-4.4,5.0,5.8,-23.7,8.1,2.6,3101
COc1ccc(OCC(=O)NNC(=O)c2ccccn2)cc1,1.7,4.2,1.3,-22.1,.,.,8662
Cc1nnc(SCC(=O)NC23CC4CC(CC(C4)C2)C3)n(N)c1=O,8.6,-10.3,3.0,-25.8,-3.1,-4.1,4480
O=C(c1ccc(N2C(=O)C3CCCCC3C2=O)cc1)N1CCCCC1 (stereo not drawn),2.8,2.4,10.0,-4.5,12.0,7.4,2013
Cc1nc2ccccc2c(=O)n1-c1ccc([N+](=O)[O-])cc1,6.8,-9.7,1.4,-24.7,2.7,9.0,3535
Cc1ccc(Cn2nc3c4cc(F)ccc4n(Cc4ccc(F)cc4)cc-3c2=O)cc1,3.7,10.2,-4.0,-13.6,0.8,-9.2,3985
COc1cc(S(=O)(=O)Nc2cccc(C)c2)ccc1NC(=O)c1cccnc1,3.5,-0.2,6.6,-17.6,-10.5,-7.0,2369
CCCn1c(=O)c(C(=O)NNC(=O)c2cccc([N+](=O)[O-])c2)c(O)c2ccccc21,-0.7,-8.7,16.8,-7.5,-1.4,4.9,5653
COc1cc(OC)cc(C(=O)NCC(=O)OCc2csc(-c3ccccc3)n2)c1,-3.1,-7.5,0.3,-23.7,1.4,-5.1,9777
Cc1nnc(-c2cnn(C)c2N)n1Cc1cccc(Cl)c1,10.2,2.9,4.4,-18.7,16.1,11.0,3520
CSc1nnc(-c2cnccn2)n1CCCN1CCCC1=O,-0.3,1.3,-2.4,6.5,-11.1,8.7,10987
CCOC(=O)N1CCC(NC(=O)C2=CCN(S(=O)(=O)c3ccc(OC)cc3)CC2)CC1,-2.6,-3.9,5.1,-34.5,-3.2,-5.9,4512
O=C(CN1CC(=O)Oc2ccccc21)OCC(=O)c1ccccc1,3.8,-5.2,5.3,-19.3,3.3,6.0,9330
COc1ccc(CC(=O)Nc2cccc(C(=O)Nc3cccc(C)c3)c2)cc1,-4.2,-5.1,1.2,.,1.5,16.0,.
COc1ccc(CC2CN3C(=NCC3C)N2CCNC(=O)CCC2CCCCC2)cc1 (stereo not drawn),2.3&-6.1,.,1.6&5.0,.,2.7&14.3,10.5&7.6,.
Nc1nnnn1CC(=O)N/N=C/c1ccccn1,.,7.9,.,-4.3,.,.,3796
COc1cc2c(cc1OC)C(C(=O)N(C)Cc1ccccc1)C(c1cccnc1)N(C)C2=O (stereo not drawn),1.1,0.4,4.6,34.2,1.3,3.4,4336
CC1(O)CCC2C3CCC4=CC(=O)CCC4(C)C34OC4CC21C (stereo not drawn),4.9,.,2.8,-31.8,7.5,8.4,3438
CCC1C(=O)NCCN1Cc1nc(-c2ccc(C)s2)oc1C (stereo not drawn),0.0,-1.9,2.8,-6.8,-4.2,17.2,3483
O=C(NCCc1ccccc1)c1ccc(-n2cnnn2)cc1,10.0,1.0,3.7,-26.6,4.8,-1.1,16633*
CS(=O)(=O)c1cccc(-c2nnc(NC(=O)C3=COCCO3)o2)c1,3.5,4.3,2.7,-4.2,6.2,14.2,5437
O=C1CSCN1c1cc(Cl)ccc1Cl,7.5,-5.7,7.3,-14.4,10.9,-4.9,4600
CNC(=S)N1N=C(c2ccc(C)cc2)CC1c1ccc(N(C)C)cc1 (stereo not drawn),11.5,7.1,4.5,-12.6,-2.6,3.3,3350
CCC(=O)Nc1cccc(C(=O)OCC(=O)c2ccccc2Cl)c1,-0.3,0.9,1.4,-39.3,4.5,12.2,10233
CCc1ccc(C(=O)CC2(O)C(=O)N(CN3CCOCC3)c3ccccc32)cc1 (stereo not drawn),1.1,-1.4,3.8,-23.3,.,.,4941
CN1CCN(c2ccc(Cl)cc2NC(=O)c2cccc(S(=O)(=O)N(C)C)c2)CC1,0.9,-7.3,1.5,1.4,-2.0,3.6,7483
Cc1ccc(S(=O)(=O)N(C)/C(=N/S(=O)(=O)c2ccccc2)c2ccccc2)cc1,.,-1.0,.,-17.2,.,.,8030
Cc1cccc(OCC(=O)O/N=C(\N)c2ccccn2)c1C,-8.4,10.9,8.1,-63.7,7.4,5.1,4195
COC(=O)C(C)NC(=O)c1cn(-c2ccccc2OC)c(=O)c2ccccc12 (stereo not drawn),2.9,9.2,0.7,-6.7,4.8,-6.3,3356
CN(C)c1ccc(/C=C(\NC(=O)c2ccccc2)C(=O)NCCCN2CCOCC2)cc1,-7.4,-3.0,-3.7,-13.9,-2.5,1.5,5590
Cc1ccc(C(=O)CC(C(=O)O)n2cccn2)cc1 (stereo not drawn),0.6,-3.4,3.1,4.2,14.4,1.7,4164
COc1cc(NC(=O)c2ccc3c(c2)OCO3)ccc1NC(=O)c1cccs1,5.5,7.4,5.7,-2.7,5.3,-0.6,4015
CCCC1S/C(=N/N=C/c2cccs2)NC1=O (stereo not drawn),.,4.0,.,-42.4,.,.,2943

# Overlap with the part before: 3 compounds; new compounds follow.
SMILES,ugtP null kill,BJeLR lethal,RN4220 kill,PrP 5UTR inh,Mtb hypoxia inh,Mtb hypoxia inh growth,Autofluor counter
Cc1ccc(C(=O)CC(C(=O)O)n2cccn2)cc1 (stereo not drawn),0.6,-3.4,3.1,4.2,14.4,1.7,4164
COc1cc(NC(=O)c2ccc3c(c2)OCO3)ccc1NC(=O)c1cccs1,5.5,7.4,5.7,-2.7,5.3,-0.6,4015
CCCC1S/C(=N/N=C/c2cccs2)NC1=O (stereo not drawn),.,4.0,.,-42.4,.,.,2943
COc1ccc(C2CC(c3ccccc3)=NN2S(=O)(=O)c2ccccc2)c(OC)c1 (stereo not drawn),4.6,4.1,2.0,-14.1,10.2,12.2,5484
CCOC(=O)C1=CCN(Cc2ccccc2)CC1,0.8,-24.4,5.7,-29.4,-0.2,-1.5,3449
O=S(=O)(/C=C/c1ccccc1)N1CCN(c2cccc(Cl)c2)CC1,-4.4,-7.0,4.5,-8.4,3.8,-1.0,11863
C=CCOc1cc(C)nc(-c2ccccc2O)n1,4.5,-21.2,6.2,-14.0,6.3,1.5,9392
Nc1nc(Nc2ccc(Cl)cc2)n[nH]1,9.7,3.4,-2.0,-25.9,.,.,2821
Cc1ncc(CO)c(C=NN=Cc2ccccc2O)c1O,3.6,.,3.4,.,3.8,-0.8,.
CCOC(=O)CSc1nc2ccccc2c(=O)n1Cc1ccco1,2.7,-5.5,4.6,-23.8,17.1,5.2,7993
CC1CN(C(=O)c2ccc3c(c2)OCO3)CC(C)O1 (stereo not drawn),2.1,-5.6,8.2,-7.1,7.5,5.3,3260
Cn1c(=O)[nH]c2ccc([N+](=O)[O-])nc21,0.3,-15.0,1.8,-16.8,-4.6,-3.1,2482
O=C(O)C1CCN(C(=O)COc2ccc3c4c(c(=O)oc3c2)CCC4)CC1,-2.7,-2.0,2.3,-8.4,.,.,2899
CCCOC(=O)Nc1ccc([As](=O)(O)O)cc1NC(=O)OCCC,-3.2,-1.0,3.4,.,2.5,2.3,2891
CN(C)CC(O)COc1ccc(C(C)(C)c2ccc(OCC(O)CN(C)C)cc2)cc1 (stereo not drawn),-5.3,-3.5,-18.6,-30.5,.,.,4693
CCCNC(=O)NC(=O)COC(=O)c1oc2ccc(OCC)cc2c1C,11.6,0.3,0.0,-14.4,.,.,2717
CC(=O)c1ccccc1NC(=O)CCCNC(=O)c1ccc(Cl)cc1,3.5,-2.6,-2.8,-16.9,-3.8,-12.3,4187
O=c1c(-c2n[nH]c(=S)o2)cccn1Cc1ccccc1,5.5,-1.0,3.4,1.3,5.8,2.5,5074
c1ccc(N2CCN(c3nc4ccccc4n4cnnc34)CC2)cc1,9.3,-0.1,7.2,-10.7,4.0,9.4,6213
Cc1cc([N+](=O)[O-])ccc1-c1ccc(C=NNC(=O)Cc2ccccc2)o1,-13.9,.,-6.4,.,-4.0,2.9,.
O=C1Oc2ccccc2C2(O)C3CCCCCC3C12 (stereo not drawn),-0.9,-5.9,5.9,8.0,.,.,3599
Cc1ccc(CNC(=O)c2sccc2-n2cccc2)cc1,10.1,-14.5,28.4,-9.0,9.2,14.7,2475
